# gsp antagonist: qHTS for Antagonists of gsp, the Etiologic Mutation Responsible for Fibrous Dysplasia/McCune-Albright Syndrome: qHTS. gsp-mutant cells, cAMP HTRF, 30 min; control for the full effect not named in the record. Potency, µM (series often up to 76.9 µM), without a hit: top-dose activity change, negative = inhibition, actives largely listed as inhibitors. actives 0.4% (n = 340,000). AID 624288, 2012; active = falling curve of any shape with a large fitted effect; inconclusive = falling curve, mostly with a smaller effect; inactive = flat or rising curve; cell line not stated here;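 note: intracellular cAMP measured with PDE inhibitor Ro 20-1724 present during compound exposure; potency is the fitted concentration of half-maximal effect; % is set by controls: 0 for no effect and ±100 for the full control effect; nearly all actives have a fitted effect of over 65% in size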
#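 G418-selected cells were plated in DMEM/10% FBS for 16-24 h at 37C, then treated with compounds plus the PDE inhibitor […] (300 uM solution added) for 30 min at 37C. Intracellular cAMP was measured by HTRF after 30 min lysis at room temperature.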
# Sfp PPTase inh: qHTS Assay for Inhibitors of Bacillus subtilis Sfp phosphopantetheinyl transferase (PPTase); 4'-phosphopantetheinyl transferase ffp (Bacillus subtilis), Q9F4F7; Biochemical Sfp PPTase activity, qHTS; Potency, µM, without a hit: max response, negative = inhibition, usual class: inhibitors; actives 3.5% (n = 310,000); AID 1490, 2009; active = well fitted inhibition curve with a large enough effect; inconclusive = small, poorly fitted or top-dose-only effect, or another doubt; inactive = no such curve, though single readings can be large or run the other way;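 note: the enzyme is Sfp with the accession as filed and its product quenches rhodamine fluorescence; potency is the fitted concentration of half-maximal effect; 0% = enzyme reaction without inhibitor and -100% = no enzyme wells; top concentration of the series not given in the record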
#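 Step 1, compound plus 15 nM Sfp-PPTase, 15 min, room temperature. Step 2, add rhodamine-CoA (5 uM) and BHQ-2-YbbR (12.5 uM). Step 3, read 525/598 nm fluorescence at 0 and 30 min.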
# D2 agonist: Beta-Arrestin HTS for Positive Allosteric Modulators of the Human D2 Dopamine Receptor: Agonists; D(2) dopamine receptor (Homo sapiens), P14416; DiscoveRx PathHunter D2 beta-arrestin, luminescence, 90 min; 100% = 57 uM dopamine signal; activation, % (no concentration beside the values); actives 0.084% (n = 360,000); AID 624465, 2012; in the data active = activation above about 40%; inconclusive = about 15% to 40%; inactive = below about 15%; note: compound concentration not given in the record; the text of the record calls up to 30% inactive
# Target sequence (P14416 whole entry, looked up): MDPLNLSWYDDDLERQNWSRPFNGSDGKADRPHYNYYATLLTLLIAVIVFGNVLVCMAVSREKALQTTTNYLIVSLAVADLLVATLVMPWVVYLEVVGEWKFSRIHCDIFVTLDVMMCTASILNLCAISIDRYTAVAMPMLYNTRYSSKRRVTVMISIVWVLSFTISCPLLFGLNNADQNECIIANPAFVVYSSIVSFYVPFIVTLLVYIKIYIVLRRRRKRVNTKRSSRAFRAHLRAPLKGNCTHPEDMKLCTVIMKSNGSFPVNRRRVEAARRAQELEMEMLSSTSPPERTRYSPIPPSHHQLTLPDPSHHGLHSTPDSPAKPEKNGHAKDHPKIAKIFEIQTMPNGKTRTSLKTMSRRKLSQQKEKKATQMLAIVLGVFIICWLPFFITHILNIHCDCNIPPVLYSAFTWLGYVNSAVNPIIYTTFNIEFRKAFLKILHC
#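 Agonist mode: compounds alone added to overnight-plated D2 PathHunter cells for 90 min at 37 C, with 57 uM final dopamine (EC100) defining full response. Beta-arrestin recruitment detected by chemiluminescent reagent, read after 1 h at ambient temperature.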
# Menin MLL FP FL: qHTS Assay for Inhibitors Targeting the Menin-MLL Interaction in MLL Related Leukemias: Competition With Fluorescein Labeled MLL-derived Peptide; Fluorescence polarization, fluorescein-MLL peptide displacement from menin; FP activity change, % at 61.4 µM; 290,000 tested, under 10 active; AID 1766, 2009; inconclusive = falling polarisation curve, or a change in total fluorescence; inactive = total fluorescence flat and polarisation flat or rising; no compound was filed as active; the % refers to the polarisation; negative = inhibition;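 note: % of control where 0% means no effect; inhibitors lower the polarisation; unlabelled MLL peptide was the positive control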
# PINK1 modulator: A Quantitative High throughput Screen to Identify Chemical Modulators of PINK1 Expression; actives 0.2% (n = 410,000); Potency, µM (doses to about 76.6 µM), without a hit: at the top dose activation (PINK1 increase), most hits filed as activators; PINK1 immunofluorescence, high-content cytometry, 24 h; active = well fitted activation curve with a large enough effect; inconclusive = small, poorly fitted or top-dose-only effect; inactive = flat fitted curve, though single readings scatter; cell line not stated here;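 note: potency is the fitted concentration of half-maximal effect; % of control where 0% means no effect; nearly all actives have a fitted effect of over 65% in size; a mitochondrial uncoupler was the plate control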
#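 PINK1 protein, normally rapidly degraded, was detected by immunofluorescence after 24 hour compound treatment of a stable cell line. Titration data (5 concentrations) came from laser-scanning cytometry, with CCCP-treated wells as controls.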
# ClpP mod: qHTS Assay for Activators of ClpP. ATP-dependent Clp protease proteolytic subunit (Bacillus subtilis (strain 168)), P80244. purified B. subtilis ClpP, FRET peptide cleavage, 20 min. Potency, µM (titrated, usually from 57.5 µM), inactives show at the highest dose activity change, negative = active. actives 1.9% (n = 340,000). AID 651965, 2013; active = well fitted falling curve with a large enough effect; inconclusive = small, poorly fitted or top-dose-only effect; inactive = no such curve, though single readings can be large or run the other way; note: potency is the fitted concentration of half-maximal effect; the source files actives as falling curves though it sought activators and does not explain the sign; nearly all actives have a fitted effect of over 65% in size; many hits overshoot -100%
# Target sequence (P80244 whole entry, looked up): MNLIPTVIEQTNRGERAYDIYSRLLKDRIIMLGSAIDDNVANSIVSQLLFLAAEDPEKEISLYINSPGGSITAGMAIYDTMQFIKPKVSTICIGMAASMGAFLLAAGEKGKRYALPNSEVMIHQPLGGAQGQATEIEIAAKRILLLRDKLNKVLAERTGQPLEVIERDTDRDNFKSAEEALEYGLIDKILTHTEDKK
#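 FRET quenching reversal measured ClpP activation: 10 microg/mL B. subtilis ClpP at pH 8 with the FRET-FV decapeptide, read at 430 nm after 320 nm excitation. The 20-min minus 0-min signal was scaled between DMSO/no-enzyme wells and ADEP (5.8 microM final).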
# gsp ag: qHTS for Agonist of gsp, the Etiologic Mutation Responsible for Fibrous Dysplasia/McCune-Albright Syndrome: qHTS. gsp mutant cells, cAMP HTRF, 30 min; control for the full effect not named in the record. Potency, µM (top dose mostly 76.9 µM), for inactives: at the top dose activation (cAMP increase), usual class: activators. actives 0.13% (n = 340,000). AID 624287, 2012; active = well fitted activation curve with a large enough effect; inconclusive = small, poorly fitted or top-dose-only effect, or another doubt; inactive = no such curve, though single readings can be large or run the other way; cell line not stated here;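 note: phosphodiesterase inhibitor Ro 20-1724 added with compounds to block cAMP breakdown; potency is the fitted concentration of half-maximal effect; nearly all actives have a fitted effect of over 60% in size; about a fifth of the inactives were tested at one dose only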
#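 Cells in DMEM/10% FBS with G418 were pretreated with compounds in DMSO plus […] (300 uM stock) for 30 min at 37C. cAMP was measured by HTRF (cAMP-d2 plus anti-cAMP antibody-K) after 30 min at room temperature.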
# * hit, by the source's call; ? = inconclusive; · = not tested or not shown; & = joins results of further samples; [ ] = remark or other dose.
SMILES	gsp antagonist	Sfp PPTase inh	D2 agonist	Menin MLL FP FL	PINK1 modulator	ClpP mod	gsp ag
O=C(CCCc1ccccc1)Nc1ccnn1C1CCN(Cc2ccc(CO)o2)CC1	0%	5%	-1.1	5.9	1.6%	-3.5%	8%
COc1ccccc1Nc1nc(-c2cccs2)cs1	-23%	-14%	-1.0	5.2	-4.5%[38.3 µM]	-2.0%	5%
CC(c1ccccc1)N(C)C(=O)CN1CCN(S(=O)(=O)c2ccc3c(c2)OCCCO3)CC1 (stereo not drawn)	-5%	·	-1.0	·	1.1%	1.9%	13%
COCCn1c(SCC(=O)c2cccc(OC)c2)nnc1-c1ccco1	-7%	-10%	-1.5	-3.5	0.5%	-1.9%	?
Cc1ccc(C(=O)C(OC(=O)c2cnccn2)c2ccccc2)cc1 (stereo not drawn)	0%	3%	5.4	-0.7	0.2%	1.0%	10%
COc1ccc(-c2cc(=O)oc3cc(OCC(=O)NCCCn4ccnc4)ccc23)cc1	-9%	18%	2.0	0.4	-0.1%	-9.6%	·
C=CCn1c(=O)[nH]c2cc(C(=O)N3CC=C(c4ccccc4)CC3)ccc2c1=O	-25%	-15%	-1.5	1.9	1.1%	·	-20%
CN(C)CCOc1cccc(Br)c1	15%	14%	-1.6	0.1	-0.6%	·	-11%[15.4 µM]
Cc1ccc(C2(CCNC(C)c3cccs3)CCOC(C(C)C)C2)cc1 (stereo not drawn)	0%	21%	-8.8	3.7	?	·	12%[15.4 µM]
Cc1cccc(NC(=O)CCN2CCCC(C)C2)c1 (stereo not drawn)	12%	-5%	3.5	0.0	-2.3%	0.4%	-4%[15.4 µM]
COc1ccc(Cl)cc1NS(=O)(=O)c1cccc2cccnc12	4%	3%	-3.2	0.7	6.5%	0.2%	4%[15.4 µM]
COc1cccc(CC2(CO)CCCN(CC3=Cc4cc(OC)ccc4OC3)C2)c1 (stereo not drawn)	-21%	3%	-2.6	11	0.7%	·	-4%[15.4 µM]
Cc1cc(C)cc(Nc2ncc3c(n2)CC(c2ccco2)CC3=O)c1 (stereo not drawn)	-10%	-23%	-1.6	0.7	-0.2%	-1.8%	8%
Cc1nnc(SCC(=O)Nc2ccccc2NC(=O)CSc2nnc(C)s2)s1	5%	17%	-0.8	2.0	14%	1.0%	27%
Cc1cc[n+](CC(=O)Nc2cccc(C)c2)cc1	0%	-1%	-5.8	5.2	-0.6%	-3.6%	-33%
CC(=O)NCC(=O)NC1CC(C)(C)Cc2c1cnn2-c1ccccc1 (stereo not drawn)	2%	-2%	-1.0	-0.7	2.4%	·	-74%[inhibitor]
Cc1ccc(C(=O)N/N=C\c2ccc[nH]2)cn1	4%	2%	-1.1	-0.6	-0.4%	-0.6%	-1%
COC(CNc1nc(SC)nc2sc3c(c12)CCN(C)C3)OC	-2%	1%	-3.0	-10	-0.3%	·	12%[15.4 µM]
O=c1c(-c2cccs2)nc2cnc(Oc3ccccc3)nc2n1C1CC1	·	-3%	·	?	0.4%	·	·
CC1CCN(C(=O)C2CCN(S(=O)(=O)c3cc(Cl)ccc3Cl)CC2)CC1	-4%	-11%	1.0	-0.3	5.3%	·	-21%[15.4 µM]
COc1nc(N(C)C)nc(N2CC(=O)N(CCNS(=O)(=O)c3ccc(C)cc3)C2=N)n1	10%	-25%	-1.5	4.8	0.8%	2.5%	6%[15.4 µM]
CCC(=O)Nc1nc2ccc3nc(C)sc3c2s1	5%	16%	5.5	3.8	2.4%	0.2%	-10%
CC(=O)Nc1ccc(NC(=O)Cc2ccc(S(=O)(=O)N3CCCCC3)cc2)cc1	-13%	·	-3.9	·	3.2%	2.1%	11%
Nc1ccc2nc(SCC(=O)c3ccccc3)sc2c1	-6%	0%	-2.5	-1.9	-0.2%	-0.2%	-3%[15.4 µM]
O=C(c1ccc(=O)oc1)N1CCC(C(O)(c2ccccc2)c2ccccc2)CC1	7%	12%	-4.7	?	-0.5%	·	13%[15.4 µM]
Nc1cc(=O)[nH]c(SCC(=O)Nc2cccc(S(=O)(=O)N3CCCCCC3)c2)n1	9%	·	-1.2	·	0.7%	-0.3%	19%[15.4 µM]
CCC1Sc2ccc(S(=O)(=O)CCC(=O)Nc3c(Cl)cc(OC)cc3OC)cc2NC1=O (stereo not drawn)	-28%	3%	2.5	-5.4	1.8%	-0.3%	-33%[inhibitor]
CC(C)C1S/C(=N/N=C/c2ccco2)NC1=O (stereo not drawn)	-3%	?	2.1	-0.6	0.7%[38.3 µM]	0.1%	-8%
c1ccc(C(c2nnnn2Cc2cccs2)N2CCN(C3CCCC3)CC2)cc1 (stereo not drawn)	-4%	-6%	0.1	1.1	-0.9%	-1.1%	-71%[inhibitor]
CCOC(=O)C1CCCN(C(=O)c2ccccc2NC(=O)C2=C(C)OCCS2)C1 (stereo not drawn)	-17%	5%	-2.1	-3.2	2.9%	0.3%	?
O=C(CN1CCCCC1)N1c2ccccc2Oc2ccccc21	0%	7%	9.9	4.0	-0.6%	0.6%	-12%
CN(C)c1ccc(NC(=O)COC(=O)c2ccc3c(c2)OCO3)cc1	-15%	·	-4.0	·	-4.2%	?	0%
O=C(Cc1ccccc1)N/N=C/c1ccc(OC(=O)/C=C\c2ccco2)cc1	-6%	9%	5.4	11	2.8%	-0.1%	-1%
O=C(COC(=O)c1cccnc1Nc1ccccc1F)NCCN1C(=O)CSC1=O	5%	14%	-0.5	4.6	-5.1%[38.3 µM]	-2.3%	-1%
O=C(O)CCn1ncc2ccccc2c1=O	15%	12%	-4.9	-6.8	1.1%	·	13%[15.4 µM]
CCN1C(=O)/C(=C2/Sc3ccc(OC)cc3N2C)SC1=Nc1cccc(O)c1	4%	7%	-0.2	3.0	7.8%[38.3 µM]	-1.2%	33%
CCS(=O)(=O)Nc1ccc(C(=O)c2ccccc2)cc1	-10%	7%	-1.3	0.2	-1.2%	-6.1%	13%
CCN(CCCNC(=O)CNC(=O)Cn1cnc2ccccc2c1=O)c1ccccc1	6%	-3%	-3.1	4.8	-0.5%	-0.4%	?
O=C1CC/C=C\C[C@@H](CC(=O)N(CCO)Cc2ccccc2)C(=O)NC[C@@H](c2ccccc2)O1	0%	·	-7.6	·	-0.9%	0.0%	-9%
COc1ccc(OCC(=O)Nc2nc3ccc(NC(C)=O)cc3s2)cc1	4%	-16%	-5.5	-0.1	5.6%	-2.7%	24%
c1ccc2c(c1)OCC(c1nn3cnnc3s1)O2 (stereo not drawn)	-2%	15%	0.7	0.5	·	-2.6%	-30%
C=C(C(=O)c1ccccc1)C(NC(C)(C)C)c1ccccc1 (stereo not drawn)	-3%	·	-6.3	·	-6.8%	-28%	?
CCc1c(C)sc(NC(=O)C2CCCCC2C(=O)O)c1C(N)=O (stereo not drawn)	-5%	4.5µM*	12	-16	0.8%	-0.6%	-19%
COc1ccc2sc(N(CCN(C)C)C(=O)/C=C/c3cccs3)nc2c1	-4%	?	2.5	0.8	-0.9%	1.1%	1%
COC(=O)CC(NC(=O)C1CC1)c1ccc2c(c1)OCO2 (stereo not drawn)	5%	9%	-1.5	0.0	2.9%	-1.8%	28%
O=S(=O)(NCCNS(=O)(=O)c1ccc(F)cc1)c1ccc(F)cc1	0%	5%	-0.7	1.2	-0.9%[38.3 µM]	1.3%	-59%[inhibitor]
O=C(Nc1ccc(S(=O)(=O)N2CCOCC2)cc1)c1ccc(Cl)s1	3%	-2%	-1.7	3.8	-4.3%[38.3 µM]	-0.5%	-6%
COc1ccc(NC(=O)/C(C#N)=C/c2ccc(OCCN3CCOCC3)c(OC)c2)c(OC)c1	11%	3%	-3.2	·	-1.2%	-2.5%	9%
Cc1nc2nc(NC(=O)c3ccco3)[nH]n2c(=O)c1C	-12%	-16%	-3.3	·	-1.0%	-0.7%	?
Cc1nnc2c(NCCC(C)C)nc3ccccc3n12	0%	9%	-3.8	1.1	3.2%	0.9%	-10%[15.4 µM]

# Other results:
SMILES	gsp antagonist	Sfp PPTase inh	D2 agonist	Menin MLL FP FL	PINK1 modulator	ClpP mod	gsp ag
O=c1c(-c2ccccc2)nc(-c2ccccc2)cn1O	6%	-4%	1.4	1.0	0.6%	?	?
O=C(CCN1CCN(c2ccc(Cl)cc2)CC1)Nc1ccccc1F	-3%	8%	-1.8	-2.0	2.3%	-1.4%	-10%
COc1ccc(C(=O)N(Cc2ccccc2)c2ccc(C)cc2)cc1S(=O)(=O)N1CCOCC1	-4%	·	2.0	·	0.3%	-3.3%	6%
CS(=O)(=O)N1CCC(C(=O)Nc2ccc(Cl)c(C(F)(F)F)c2)CC1	-7%	3%	3.2	3.5	0.0%[38.3 µM]	0.2%	-48%[inhibitor]
COc1ccc2[nH]c(-c3cccc(F)c3)cc(=O)c2c1	8%	-1%&20%	-8.2	-0.1[94.6 µM]	7.4%	3.8%	-18%
CS(=O)(=O)Nc1ccc(-c2cncc3nccn23)cc1	·	·	9.0	·	0.7%	4.8%	·
Cc1cccc(C)c1NC(=O)c1sc(Cl)nc1C	8%	21%	0.0	-2.6	2.5%	-2.3%	4%
CN(CC(=O)Nc1ccccc1-c1ccccc1)Cc1ccccc1Cl	-22%	-15%	-5.4	-4.7	14%	·	38%[15.4 µM]
CC(C)(C)NC(=O)CN(Cc1ccc2c(c1)OCO2)C(=O)CCC(=O)Nc1nccs1	2%	-2%	-3.0	-0.4	-0.4%	·	12%[15.4 µM]

# Assay outcomes deposited in PubChem BioAssay by National Center for Advancing Translational Sciences (NCATS).
